Compound activity (PubChem BioAssay)
RE007 growth inh: less growth of the S. pombe RE007 Vpr strain; S. pombe RE007 Vpr strain, BacTiter-Glo ATP luminescence, 24 h; control for the full effect not named in the record; Potency, µM (highest dose often 92.2 µM), without a hit: at the highest dose activity change, negative = less growth; 360,000 tested, 0.21% active; active = well fitted falling curve with a large enough effect; inconclusive = small, poorly fitted or top-dose-only effect; inactive = no such curve, though single readings can be large or run the other way;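 note: % is set by controls: 0 for no effect and ±100 for the full control effect; nearly all actives have a fitted effect of over 50% in size; the assay follows cell death caused by Vpr and the record does not say whether a fall means rescue or toxicity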
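Fission yeast RE007 carrying one integrated HIV-1 vpr copy, seeded at OD 0.01 in PMG+AL medium with 23 nL pinned compound. Grown 24 h at 30 degrees; viability read by BacTiter-Glo luminescence after 5 min.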
Cruzain inh noDet: cruzain (T. cruzi) inhibition without detergent. P25779. Potency, µM, inactives show max response, negative = inhibition, most hits filed as inhibitors. 200,000 tested, 2.3% active. purified cruzain, Z-FR-AMC fluorescence, no detergent; active = well fitted curve in the direction sought with a large enough effect; inconclusive = small, poorly fitted or top-dose-only effect, or another doubt; inactive = no such curve, though single readings can be large; an effect the other way counts as inactive or inconclusive;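 note: plate controls were enzyme without inhibitor for no effect and buffer without enzyme for full effect; nearly all actives have a fitted effect of over 40% in size; top concentration of the series not given in the record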
Target sequence (P25779 123-467 limits assumed): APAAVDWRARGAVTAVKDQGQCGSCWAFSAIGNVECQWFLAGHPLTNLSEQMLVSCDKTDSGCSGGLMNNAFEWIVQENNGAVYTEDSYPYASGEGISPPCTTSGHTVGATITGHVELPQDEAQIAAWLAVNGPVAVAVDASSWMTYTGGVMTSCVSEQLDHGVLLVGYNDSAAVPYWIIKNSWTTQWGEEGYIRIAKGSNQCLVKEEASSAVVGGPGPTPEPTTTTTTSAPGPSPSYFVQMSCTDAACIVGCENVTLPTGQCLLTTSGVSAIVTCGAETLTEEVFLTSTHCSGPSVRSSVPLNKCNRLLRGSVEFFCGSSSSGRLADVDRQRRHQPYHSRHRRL
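Purified cruzain at 1.5 nM, pre-incubated 15 min with compound at room temperature in 100 mM sodium acetate pH 5.5, 5 mM DTT, 0.00005% Triton X-100. Reaction started with 2 uM Z-FR-AMC; AMC fluorescence increase over 60 s gives rate.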
NS1 inh: blocks influenza NS1 protein function. S. cerevisiae slowed by influenza A NS1, growth recovery by OD600. Potency, µM (series often up to 46.1 µM), without a hit: at the highest dose activity, positive = more growth. 270,000 tested, 0.4% active; note: actives are rising curves; nearly all actives have a fitted effect of over 50% in size
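Read-out: OD600 growth recovery of NS1-expressing budding yeast. Cells grown overnight at 30C in -URA glucose medium, washed, resuspended and diluted 1:100 in 2% galactose assay medium, pH 6.0. Same strain lacking NS1 served as positive control.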
Cruzain Triton: blocks cruzain activity in presence of Triton detergent; 200,000 tested, 0.43% active; AID 1478; Potency, µM, for the others: max response, negative = inhibition, actives largely listed as inhibitors; P25779; purified cruzain, Z-FR-AMC fluorescence, 0.01% Triton; active = well fitted curve in the direction sought with a large enough effect; inconclusive = small, poorly fitted or top-dose-only effect, or another doubt; inactive = no such curve, though single readings can be large; an effect the other way counts as inactive or inconclusive;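 note: plate controls were neutral wells for no effect and buffer without enzyme for full effect; nearly all actives have a fitted effect of over 40% in size; top concentration of the series not given in the record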
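Enzyme 1.5 nM, Z-FR-AMC 2 uM, NaOAc 100 mM pH 5.5, DTT 5 mM, Triton X-100 0.01%; 15 min RT compound preincubation; kinetic ex360/em450, 60 s delta.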
StopGo reporter: FMDV 2A StopGo reporter, luciferase signal; human cells with a luciferase reporter of 2A StopGo recoding; control for the full effect not named in the record; Potency, µM (doses to about 57.9 µM), inactives show at the highest dose signal change, negative = less light; 410,000 tested, 1.2% active; active = well fitted falling curve with a large enough effect; inconclusive = small, poorly fitted or top-dose-only effect; inactive = no such curve, though single readings can be large or run the other way; tested in HEK293T cells; note: % is set by controls: 0 for no effect and ±100 for the full control effect; nearly all actives have a fitted effect of over 45% in size; luciferase light after 4 h
LASV entry inh: Lassa virus entry inhibition; Lassa virus pseudotype entry inhibition, cell reporter; control for the full effect not named in the record; Potency, µM (doses to about 37.9 µM), for the others: at the highest dose activity change, negative = inhibition, most hits filed as inhibitors; 300,000 tested, 1.2% active; active means well fitted inhibition curve with a large enough effect; inconclusive means small, poorly fitted or top-dose-only effect, or effect the other way; inactive means flat fitted curve, though single readings scatter; tested in HEK293 cells; note: % is set by controls: 0 for no effect and ±100 for the full control effect; nearly all actives have a fitted effect of over 50% in size; luciferase read-out
MARV entry inh: inhibitors of Marburg virus binding or cell entry; Marburg virus pseudotyped entry inhibition, cell reporter; control for the full effect not named in the record; about a third of the inactives were read at about 46 µM; Potency, µM (titrated, usually from 37.8 µM), without a hit: top-dose activity change, negative = inhibition, most hits filed as inhibitors; 300,000 tested, 1.8% active; active = well fitted inhibition curve with a large enough effect; inconclusive = small, poorly fitted or top-dose-only effect, or effect the other way; inactive = flat fitted curve, though single readings scatter; tested in HEK293 cells; about a fifth of its hits are not listed in these tables; note: % is set by controls: 0 for no effect and ±100 for the full control effect; luciferase read-out
SARS PLpro yeast: blocks SARS-CoV papain-like protease in a yeast assay. S. cerevisiae expressing SARS-CoV PLpro, growth rescue; control for the full effect not named in the record. Potency, µM (titrated, usually from 32.9 µM), for the others: at the top dose activity, positive = growth rescue. 330,000 tested, 0.19% active. AID 485353; note: 0% is about no effect; nearly all actives have a fitted effect of over 55% in size; growth read by luminescence after 48 h
Starred values were filed as active, the others as inactive; ? = inconclusive; . = not tested or not shown; & = joins results of further samples; [ ] = another dose, or the depositor's remark. Unless noted, calls come from the whole dose curve; as a rule, active means well fitted rising curve with a large enough effect; inconclusive means small, poorly fitted or top-dose-only effect; inactive means no such curve, though single readings can be large or run the other way. Potency is the fitted concentration of half-maximal effect.

SMILES	RE007 growth inh	Cruzain inh noDet	NS1 inh	Cruzain Triton	StopGo reporter	LASV entry inh	MARV entry inh	SARS PLpro yeast
O=C(c1ccccc1Cl)N1CCN(C(=O)C2CCCO2)CC1 (stereo not drawn)	7%	.	.	.	-22%	1%	28%[46.1 µM]	1%
COC(=O)c1ccccc1NC(=O)c1cc(C)no1	-12%	.	-5%	.	-13%	.	.	-1%
Cc1cc(C)cc(NC(=O)CC23CC4CC(C2)CC(n2nnc(C)n2)(C4)C3)c1	28%	0%	1%	-5.2%	-22%	?	?	14%
CCCNC(=O)COC(=O)c1ccccc1OCC(=O)Nc1ccc(Br)cc1	0%	-21%	5%	-2.2%	-4%	?	?	9%
COc1cccc(C2=NOC(C(=O)Nc3ccccc3SC)C2)c1 (stereo not drawn)	-18%	3%	-11%	-3.1%	-8%	13%	5%	-4%
COc1ccc(Nc2nc(-c3ccc(C)cc3)nc3ccccc23)c(OC)c1	.	11%	.	-5.5%	-9%	11%[46.1 µM]	.	.
COc1ccc(CCNC(=O)CSc2ccc(-c3ccccc3)nn2)cc1	.	3%	6%	5.3%	.	-1%	9%	-6%
O=C(CC1CCCC1)N1CCCC(Nc2cccc(F)c2)C1 (stereo not drawn)	8%	.	12%	.	-17%	2%	-13%[46.1 µM]	.
CCN(CC)S(=O)(=O)c1cc(C)c(C)cc1OCC(=O)NC1CCCC1	-9%	.	-15%	.	-1%	-26%	?	-5%
Cc1cccc(Cn2c(CNS(=O)(=O)c3ccc4c(c3)CCCC4)nc3cccnc32)c1	.	0%	.	-2.9%	65%[activator]	18%[46.1 µM]	.	.
CC(=O)NNC(=S)NC(=O)c1ccc(C)cc1	11%	.	-2%	.	1%	-1%	2%[46.1 µM]	1%
COC(=O)c1ccc(CNC(=O)CNc2cc(C(F)(F)F)ccc2N2CCOCC2)cc1	-15%	-9%	-13%	-0.1%	-6%	13%	0%&0%	-1%
O=C(c1ccc([N+](=O)[O-])cc1)N(Cc1ccccc1)c1ccccn1	17%	.	.	.	-1%	-14%[46.1 µM]	-29%[46.1 µM]	1%
S=C(Nc1ccc(Cl)cc1Cl)N1CCOCC1	1%	5%	16%	2.6%	30%[activator]	-9%	10%	3%
FC(F)(F)c1cnc(N2CCCN(C(=S)Nc3ccccc3)CC2)c(Cl)c1	39%	.	3%	.	?	?	?	-2%
COc1ccc(N2CCN(C(=O)c3cc4ccc5cccnc5c4[nH]3)CC2)cc1	.	10%	.	0.1%	29%	22%[46.1 µM]	.	.
Cn1c2c(c(=O)c3ccccc31)CCC(C)(C)O2	-19%	7%	-1%	-1.2%	-11%	10%	?	-7%
CC(=O)Nc1ccc(N/C(N)=N/c2nc(C)cc(C)n2)cc1	-10%	.	.	.	-24%	9%	-19%[46.1 µM]	-2%
c1ccc(CN2CCC3(CC2)Nc2ccccc2CO3)cc1	4%	-4%	-2%	6.7%	14%	-1%	-19%	0%
COc1ccc(N2CCN(C(=O)CSc3nnc(-c4ccc5[nH]c(C)c(C)c5c4)o3)CC2)cc1	14%	13%	-19%	3.2%	.	?	-1%	11%
COc1ccccc1CNC(=O)c1ccc(CS(=O)(=O)c2c(Cl)cccc2Cl)o1	.	-2%	.	-0.3%	-19%	?	?	.
CCN(CC)CCNC(=O)C1CCN(S(=O)(=O)c2c(C)noc2/C=C/c2ccccc2F)CC1	-7%	-6%	-13%	-2.1%	-2%&-1%	?	.	-4%
CC1=CC(C)(C)N=C(Nc2ccc(C)cc2)S1	-20%	-1%	-12%	-3.7%	.	17%	?	5%
Cc1ccc2nc(NC(=O)CC3Oc4ccccc4NC3=O)sc2c1 (stereo not drawn)	-12%	.	1%	.	5%	.	.	1%
CCOc1ccccc1NC(=O)c1cc2c(Cl)nc3ccccc3c2s1	.	-6%	.	2.6%	1%	-3%[46.1 µM]	-2%[46.1 µM]	.
O=C(NCc1ccc2c(c1)OCO2)C(=O)NCC1OCCN1S(=O)(=O)c1ccc(Cl)cc1 (stereo not drawn)	-7%	.	-5%	.	?	-53%	?	-2%
O=C(Nc1cccc(Cl)c1)N1CCN(c2ncccn2)CC1	9%	7%	-35%	-3.4%	15%	1%	0%	-8%
CCC(=O)c1cc(F)c(N2CCN(CC)CC2)cc1C	-15%	0%	9%	3.9%	23%	-1%	-29%[46.1 µM]	1%
CCOC(=O)c1sc2nc(C)nc(N3CCCCC3C)c2c1C (stereo not drawn)	-4%	.	.	.	-13%	0%	?	-2%
CCc1ccc(NS(=O)(=O)c2c(C)noc2C)cc1	1%	.	-18%	.	0%	.	.	-5%
COc1ccccc1CNC(=O)CCCCn1c(=O)c2ccccc2n(Cc2ccccc2F)c1=O	.	-6%	.	-2.5%	-15%	6%[46.1 µM]	21%[46.1 µM]	.
Cn1cc(CN2CCc3c([nH]c4ccccc34)C2C2CCCCC2)cn1 (stereo not drawn)	-25%	.	-5%	.	-16%	11%	?	-2%
Nc1c(C(=O)Nc2ccc3c(c2)OCCO3)nnn1Cc1ccc(Cl)cc1	-10%	.	.	.	47%[activator]	-2%	9%	2%
CCN1C(=O)c2ccccc2S(=O)c2ccc(C(=O)NCc3ccc(OC)cc3)cc21 (stereo not drawn)	33%	-1%	0%	0.9%	-8%&-14%	?	14%&14%[46.1 µM]	2%
CCn1nccc1C(=O)Nc1nc2ccccc2n1CCN1CCCCC1	7%	-6%	23%	-2.1%	-10%	-3%	-9%	0%
c1ccc(N2OCC3Cn4c(nc5ccccc54)C32)cc1 (stereo not drawn)	-16%	.	-12%	.	45%[activator]	.	.	-4%
COCc1ccc(CN2CCCC(CCC(=O)NCc3cccc(OC)c3)C2)o1 (stereo not drawn)	1%	.	2%	.	17%	4%	9%[46.1 µM]	-1%
CC(=O)c1cccc(NC(=O)C2CCN(S(C)(=O)=O)CC2)c1	-14%	-9%	4%	-2.7%	.	12%	3%	4%
CC(C)Oc1ccc(C2CNC(=O)C2)cc1 (stereo not drawn)	17%	3%	-12%	3.3%	-6%	.	.	-2%
COc1cc(-c2nc(C(N)=O)c3c(n2)n(-c2cccc(C)c2)c(=O)n3C)cc(OC)c1OC	.	-11%	.	-1.3%	-17%	13%[46.1 µM]	.	.
COc1cccc(C(=O)CSc2nnc(-c3cc(OC)c(OC)c(OC)c3)o2)c1	-7%	?	1%	-4.4%	.	0%	0%	?
COc1ccc(N(CC(=O)NCc2ccc(C)cc2)S(=O)(=O)c2c(C)noc2C)cc1	8%	.	-3%	.	-9%	.	.	0%
Cc1onc(-c2ccccc2)c1C(=O)/C=C/N(C)C	-1%	.	0%	.	-8%	.	.	1%
O=S(=O)(c1ccccc1)N1CCn2c(nc3ccccc32)C1	11%	-13%	-2%	-7.0%	3%	.	.	-5%
CC1CC(C)CN(S(=O)(=O)c2ccc(NC(=O)CN3CCCCCC3)cc2)C1 (stereo not drawn)	-1%	.	.	.	23%	?	?	2%
COc1cccc(-c2nc(NCc3ccco3)c3ccccc3n2)c1O	12%	-12%	15%	-7.0%	3%	?	17%&17%	8%
CCOC(=O)c1c(-c2ccc(Br)cc2)csc1NC(=O)c1ccc(F)cc1	.	-12%	.	-2.4%	-9%	-1%[46.1 µM]	.	.
COc1ccc2[nH]c3c(=O)n(Cc4ccco4)cnc3c2c1	10%	2%	3%	5.7%	0%	?	0%	-4%
CSCCC1COC(c2cccs2)=N1 (stereo not drawn)	3%	.	.	.	76%[activator]	14%	11%	2%
COc1ccc(S(=O)(=O)N(C)c2ccc(C(=O)N3CCCC3)cc2)cc1OC	-3%	.	-29%	.	-21%	5%	-1%[46.1 µM]	3%
CCCCc1ccc(-c2csc(/C(C#N)=C/c3ccc(C)o3)n2)cc1	-4%	-15%	11%	-3.3%	-16%	12%	0%	-4%
Cc1ccc(C(=O)N(Cc2ccccc2)C(C)(C)C)cc1C	26%	0%	-15%	-4.8%	-15%	-8%	-18%	8%
CC(=O)C1=C(O)C(=O)N(CCO)C1c1ccccc1 (stereo not drawn)	-1%	.	6%	.	-7%	.	.	1%
CCc1nnc(NS(=O)(=O)c2ccc(NC(=O)c3cc4ccccc4oc3=O)cc2)s1	.	-13%	4%	-1.1%	.	.	3%	-7%
COC(=O)c1ccc(C(=O)OC)c(NC(=O)C(C)C)c1	7%	.	-3%	.	5%	-26%[46.1 µM]	13%[46.1 µM]	1%
Cc1ccccc1C(=O)NC[C@@H]1CCCN2CCCC[C@H]12	0%	.	1%	.	-5%	23%	-9%	2%
Nc1nc(-c2ccccc2)cc(C(F)(F)F)n1	5%	8%	-4%	-5.3%	9%	?	0%	-4%
COC(=O)[C@@H](NC(=O)O[C@@H]1C(=O)c2ccc(OC)cc2O[C@H]1c1cccc(C(F)(F)F)c1)C(C)C	.	-2%&23%	12%	-7.8%&-12%	.	?	?	-15%
CC(=O)c1cccc(NC(=O)CCC(=O)c2ccc(F)cc2)c1	3%	.	1%	.	10%	39%[46.1 µM]	5%[46.1 µM]	2%
COc1ccc(C2C3=C(CCCC3=O)Nc3c(-c4ccccc4)c(C)nn32)cc1 (stereo not drawn)	0%	8%	4%	-14%	0%	?	-5%	1%
COc1cc2c(cc1OC)N1C(=O)CC(OCC(=O)O)C3C4CC5(CCN5C(=O)C4=O)C2C31 (stereo not drawn)	-11%	.	-6%	.	2%	0%	2%[46.1 µM]	0%
O=S(=O)(Nc1ccc(-c2ccc3nncn3n2)cc1)c1ccc(Cl)s1	-4%	.	.	.	16%	-4%	-27%	-10%
CCOC(=O)N1CCc2c(sc3c2C(=O)NC(c2cc(OC)c(OC)c(OC)c2)N3)C1 (stereo not drawn)	.	-4%	.	-8.2%	-23%	?	?	.
